MT1-MMP act inh: blockers of MT1-MMP proenzyme processing, primary screen, HT1080 RFP-PRO-GFP cells, GFP/RFP fluorescence | AID 651647, 2012 | GFP/RFP ratio change, % at 20 µM | Matrix metalloproteinase-14 (Homo sapiens), P50281 | GFP/RFP ratio fluorescence, overnight; percent of plate control window, DMSO zero | 0.061% of 360,000 active;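 active = GFP/RFP ratio change of at least 30% with cell ATP level not reduced by more than half and red fluorescence within 50% of control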; note: strong numbers were not always called active
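Assay system: RFP-PRO-GFP reporter HT1080 cells; read-out basis: GFP/RFP fluorescence ratio; benchmarks: DMSO wells and RFP-L50D-GFP cells; doses: 20 µM single dose, 1% DMSO; schedule: overnight cell settling, then overnight compound exposure, 37 °C, 5% CO2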
Rce1 inhib: yeast Rce1p protease inhibitors, primary screen, biochemical, fluorescence, cell-free homogeneous | 0.27% of 290,000 active | yeast membranes, quenched prenylated peptide cleavage fluorescence | calls only;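 active = fall in fluorescence gain of 50% or more versus controls, with final raw signal at or below 3038400; inconclusive = same 50% fall but final raw signal above 3038400; inactive = fall in fluorescence gain under 50%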;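 note: plate controls were neutral control wells for no effect and wells lacking membranes for full effect; tested at 10 µM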
Env fusion inh: inhibitors of HIV-1 Env-driven cell-cell fusion, primary screen, HeLa-JRFL effector, CEM21 target cells, luciferase; inhibition, % at 12.3 µM; 1.1% of 360,000 active; AID 651610, 2012;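 active = mean replicate inhibition score of at least 50 and every replicate individually at or above 50; inconclusive = only one of the two criteria met; inactive = mean below 50 and not all replicates reaching 50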;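 note: 0% = plate neutral controls and 100% = maraviroc near 300 nM; one replicate is shown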
PABP polyA inh: PABP poly(A) RNA binding inhibitors, primary screen, biochemical, fluorescence polarization, uHTS | 1% of 290,000 active | inhibition, % at 35 µM | Polyadenylate-binding protein 1 (Homo sapiens), P11940;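 active = 50% or more with normal probe brightness, or confirmed in later tests; inconclusive = above 50% with abnormal brightness, or retests that disagree; inactive = below 50% or failed in later tests; about a fifth of its hits are not listed in these tables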;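 note: calls also rest on retests at 20 µM and on dose response follow-up; controls were probe without protein and protein plus probe with vehicle; some compounds called inactive have numbers as strong as hits; many hits fall short of the cut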
Target sequence (P11940 whole entry, looked up): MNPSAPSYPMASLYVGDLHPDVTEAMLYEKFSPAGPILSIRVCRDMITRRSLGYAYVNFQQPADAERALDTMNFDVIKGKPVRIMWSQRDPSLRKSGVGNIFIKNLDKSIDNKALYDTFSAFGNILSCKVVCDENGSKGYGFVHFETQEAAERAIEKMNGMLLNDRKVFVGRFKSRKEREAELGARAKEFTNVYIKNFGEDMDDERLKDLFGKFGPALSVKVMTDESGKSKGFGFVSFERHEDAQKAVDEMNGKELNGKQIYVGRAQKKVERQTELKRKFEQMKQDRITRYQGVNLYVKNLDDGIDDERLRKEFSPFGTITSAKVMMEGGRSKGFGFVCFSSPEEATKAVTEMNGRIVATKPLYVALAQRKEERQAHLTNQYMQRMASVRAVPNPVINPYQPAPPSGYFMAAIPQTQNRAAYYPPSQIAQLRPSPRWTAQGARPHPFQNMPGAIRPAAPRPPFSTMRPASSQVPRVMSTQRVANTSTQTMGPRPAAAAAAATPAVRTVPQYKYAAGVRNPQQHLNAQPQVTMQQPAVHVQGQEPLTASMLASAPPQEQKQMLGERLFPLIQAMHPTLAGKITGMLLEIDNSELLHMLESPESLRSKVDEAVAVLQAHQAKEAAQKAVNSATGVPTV
CSC inhib: cancer stem cell viability inhibitors, primary screen, luminescence. cancer stem cell-like cells viability. inhibition, % at 7.5 µM. 1.1% of 300,000 active. AID 2717, 2010;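 active = mean at 75% or more and at least half the replicates too; inconclusive = mean and replicates disagree; tested in HMLE shEcad cells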;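 note: 0% = median of negative and 100% = median of positive control wells; the first replicate is given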
eIF4H inh: human eIF4H binding inhibitors, primary screen, translation initiation inhibitor project, biochemical, uHTS, fluorescence polarization; inhibition, % at 35 µM; 0.94% of 290,000 active; Eukaryotic translation initiation factor 4H (Homo sapiens), Q15056; eIF4H fluorescence polarization binding assay; AID 2012, 2009;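 active = 50% or more with normal probe brightness, or confirmed in later tests; inconclusive = above 50% with abnormal brightness, or retests that disagree; inactive = below 50% or failed in later tests; about a fifth of its hits are not listed in these tables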;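 note: calls also rest on retests at 20 µM and on dose response follow-up; 0% = protein and probe with vehicle and 100% = probe without protein; strong numbers were not always called active; many hits fall short of the cut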
UUG fidelity: modulators of yeast start codon fidelity, primary screen, whole organism, S. cerevisiae, single point, plate reader; activity score, % at 18.7 µM; 0.13% of 350,000 active; S. cerevisiae UUG-firefly luciferase reporter, luminescence/redox ratio; AID 602363, 2012;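 active = replicate mean at a twofold rise or more, about +100% in these data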;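 note: firefly luciferase made from a UUG start codon reports start codon fidelity; reporter light over untreated wells divided by growth signal over untreated wells; some hits fall short of that in this replicate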
eIF4H inh retest: second read-out of eIF4H inh, no call of its own (marks repeat the call); inhibition, %; compound at 20 µM; confirmation average;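 mean of two retest wells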
PABP polyA inh retest: also measured in PABP polyA inh; calls as there; inhibition, %; compound at 20 µM; confirmation repeats;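 mean of two retest wells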
MT1-MMP act inh RFP: recorded beside MT1-MMP act inh, whose call it bears; RFP signal change, %; measured here: RFP expression control read;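 0 = vehicle wells; hits needed this value within 50% of zero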
* hit, by the source's call; i = inactive; ? = inconclusive; · = no result given.

SMILES | MT1-MMP act inh | MT1-MMP act inh RFP | Rce1 inhib | Env fusion inh | PABP polyA inh | CSC inhib | eIF4H inh | UUG fidelity | others
Cc1cc(NC(=O)C(C)Oc2ccccc2)no1 (stereo not drawn) | 1 | 3 | i | 10 | -4 | 4 | 2 | ·
COc1ccc(/C(C)=N/NS(=O)(=O)c2ccccc2)c(OC)c1 | 2 | 5 | i | 13 | -6 | -9 | 7 | -15
NC(=O)C1CCCN(CC(=O)Nc2ccccc2C(=O)NC2CC2)C1 (stereo not drawn) | -2 | 1 | · | -4 | · | · | · | 2
CC(=O)c1c(C)[nH]c(C(=O)Nc2cccc(C)c2C)c1C | -1 | -3 | i | -43 | 4 | -9 | -5 | -11
C=CCNc1nc2c(c(=O)[nH]c(=O)n2C)n1CCCc1ccccc1 | 4 | 5 | · | -1 | 0 | -5 | -9 | -6
CCCCNC(=O)C1CCCN(S(=O)(=O)c2ccc(S(=O)(=O)NCC(C)C)cc2)C1 (stereo not drawn) | 0 | -7 | i | -3 | -2 | 5 | -2 | -10
CCOc1ccccc1NC(=O)Cc1ccccc1OC | -11 | -3 | i | · | 2 | 18 | -1 | -10
CCN(CC(=O)Nc1cccc(S(N)(=O)=O)c1)Cc1nc2ccccc2c(=O)[nH]1 | -6 | -7 | i | -5 | -6 | -8 | 0 | -1
CCCc1nn(C)c2c(=O)[nH]c(-c3ccccc3OCC)nc12 | 2 | 2 | i | · | -14 | -7 | 2 | -12
Oc1c(Br)cc(Br)cc1CNc1ccc(F)cc1 | 1 | 1 | i | -4 | -5 | -4 | 76 | · | eIF4H inh retest=-9;PABP polyA inh retest=-4
CCOC(=O)Cc1csc(NC(=O)CSc2nc(C)cc(=O)[nH]2)n1 | -5 | 1 | i | -25 | 2 | -12 | 6 | -3
COc1ccc(/C=C(/NC(=O)c2ccco2)C(=O)NCc2ccco2)cc1 | 1 | 1 | · | -1 | · | · | · | 9
NC(=O)c1cccnc1Nc1ccccc1F | 7 | 8 | i | -37 | -14 | -1 | 0 | ·
O=C(Cn1ncc2c(=O)oc3ccccc3c21)NC1CC1 | 1 | -1 | i | · | -1 | -12 | 3 | -5
Cc1ccc(CNC(=O)C2(C)CCN2C(=O)Cc2ccc(-c3ccccc3)cc2)cc1 (stereo not drawn) | -1 | -12 | · | 18 | · | · | · | 8
COc1ccc(N2CCN(C(=O)c3oc4ccccc4c3NC(=O)CCc3cc(OC)no3)CC2)cc1 | -1 | -1 | i | -5 | 6 | -4 | -9 | -5
O=C(NCc1ccccc1)C1Cc2c(-c3ccc(Cl)cc3)ccnc2O1 (stereo not drawn) | 15 | -2 | · | -19 | · | · | · | -8
COc1cc(NC(=S)Nc2cccc(C)n2)cc(OC)c1OC | 0 | 5 | i | -7 | -1 | -7 | 1 | ·
NC(=O)CC(NC(=O)Cc1cccc2ccccc12)c1ccc(N2CCCCCC2)c([N+](=O)[O-])c1 (stereo not drawn) | 0 | 1 | i | 10 | -6 | 12 | -9 | -4
CC(C)OC(=O)c1ccc(COC(=O)c2cccc(-c3nnc(-c4ccccc4)o3)c2)cc1 | -2 | 1 | i | -8 | 8 | 16 | -5 | ·

Among those listed so far, these have two or more sulfur atoms:
SMILES | MT1-MMP act inh | MT1-MMP act inh RFP | Rce1 inhib | Env fusion inh | PABP polyA inh | CSC inhib | eIF4H inh | UUG fidelity | others
CCCCNC(=O)C1CCCN(S(=O)(=O)c2ccc(S(=O)(=O)NCC(C)C)cc2)C1 (stereo not drawn) | 0 | -7 | i | -3 | -2 | 5 | -2 | -10
CCOC(=O)Cc1csc(NC(=O)CSc2nc(C)cc(=O)[nH]2)n1 | -5 | 1 | i | -25 | 2 | -12 | 6 | -3

Other entries.
SMILES | MT1-MMP act inh | MT1-MMP act inh RFP | Rce1 inhib | Env fusion inh | PABP polyA inh | CSC inhib | eIF4H inh | UUG fidelity | others
COc1ccc(CNc2nc(NC(C)=O)nn2-c2ccccc2)cc1 | -4 | -2 | i | -16 | -6 | -9 | -7 | -16
O=C(COC(=O)Cc1c(F)cccc1Cl)NC1CCS(=O)(=O)C1 (stereo not drawn) | 5 | 5 | i | 8 | · | 2 | · | -6
O=C(NCc1ccccc1)C(c1ccncc1)N(C(=O)c1csnn1)c1ccccc1F (stereo not drawn) | 0 | 2 | i | 5 | -14 | 4 | -8 | -8
COCCn1c(SCC(=O)c2ccccc2)nc2c(c1=O)SCC2 | 5 | -3 | i | -11 | -6 | 3 | -4 | -6
O=C(N/N=C/c1ccc([N+](=O)[O-])s1)c1ccccc1Br | -8 | -7 | i | · | 3 | · | 8 | -19
CSc1nc2[nH]c(=O)n(O)c(=O)c2n1Cc1ccccc1 | 17 | -5 | · | -30 | · | · | · | -16
COc1ccc(N2CCN(C(=O)Cc3coc4cc(C)ccc34)CC2)cc1 | 4 | -2 | i | 15 | -7 | -11 | -9 | ·
Cc1ccc(C)c(S(=O)(=O)N=Nc2c(O)[nH]c3ccccc23)c1 | 2 | 13 | i | 10 | 7 | -2 | -5 | ·
O=C(c1cc(COc2ccc(F)cc2Cl)on1)N1CC2C[C@@H]3CC1C[C@H](C2)C3 | -3 | -4 | i | -90 | · | 51 | · | -16
CC1=CC(C)(C)N(C(=O)C(C)N2C(=O)c3ccccc3C2=O)c2ccc(C)cc21 (stereo not drawn) | 0 | -2 | i | · | -6 | 6 | -2 | 1
O=C(N/C(=C/c1cccs1)C(=O)N1CCOCC1)c1cccs1 | 3 | 6 | i | 6 | -3 | -15 | -1 | ·
CCn1c(SCC(=O)Nc2ccc(F)cc2F)nc2c(c1=O)SCC2 | -1 | -3 | i | 1 | 4 | -12 | 6 | -1
CCC(=O)N/N=C(\C)CC(=O)Nc1ccc2ccccc2c1 | -1 | 1 | i | -20 | 13 | -20 | -5 | -12
O=C(COc1ccc(F)cc1Cl)Nc1ccccc1C(=O)N1CCCCC1 | -1 | 1 | i | · | · | -8 | · | -8
O=[N+]([O-])c1ccc2c(c1Nc1ccccc1)=NC1(CCCCC1)N=2 | 10 | 7 | i | -63 | 8 | 20 | -5 | -11
CS(=O)(=O)N1CCN(c2ccc(NC(=S)NC(=O)c3ccccc3[N+](=O)[O-])cc2)CC1 | -8 | -4 | i | -3 | -6 | · | -7 | ·
Cc1ccc(S(=O)(=O)N2CC3(C)CN(S(=O)(=O)c4ccc(C)cc4)CC(C)(C2)C3O)cc1 (stereo not drawn) | 2 | 11 | i | -10 | 2 | · | -2 | -5
O=C(/C=C/c1ccco1)NCCCN1CCOCC1 | 2 | 5 | i | 6 | -9 | · | -6 | ·
Cc1ccc(C)c(N2CCN(CCCc3ccccc3)CC2)c1 | 6 | -7 | i | 6 | 1 | -8 | -14 | 5
CC1CCCC(C)N1C(=O)CSc1nnc(-c2cccs2)o1 (stereo not drawn) | 0 | -9 | i | -73 | -4 | 15 | 1 | -24
O=C(Cc1cccc(NC(=O)C2CCCN(C(=O)C3CCCCC3)C2)c1)Nc1cccc(C(=O)N2CCOCC2)c1 (stereo not drawn) | 3 | 5 | · | -6 | · | · | · | -2
CSc1ccccc1OCc1cc(C(=O)NCCc2ccco2)no1 | -4 | -1 | i | -3 | -6 | -4 | -11 | -15
COc1ccc(/C=C/C(=O)OCC(=O)Nc2ccc(N3CCOCC3)cc2)cc1OC | 2 | 3 | · | -4 | -6 | -9 | -7 | -6
Cc1ccccc1N(CC(=O)N/N=C/c1cc(C)n(-c2ccccc2C)c1C)S(C)(=O)=O | -1 | 1 | i | · | -2 | 3 | -21 | 12
COc1ccccc1-c1cccc([C@@H]2C[C@H]3[C@H](CON3C)CN2Cc2cc(Cl)cc(Cl)c2)c1 | 4 | 0 | · | 9 | · | · | · | -2
CCCN1CCc2c(sc(NC(=O)c3ccc(S(=O)(=O)N4CCN(C(=O)OCC)CC4)cc3)c2C(N)=O)C1 | -104 | -4 | i | -12 | 45 | -8 | ? | -1
COC(=O)c1ccc(COc2ccc(/C=N/N3CCN(C)CC3)cc2)cc1 | 2 | 1 | i | -1 | -6 | -3 | -9 | ·
CCOC(=O)COc1nc(Nc2ccccc2C)nc(N(C)C)n1 | -4 | 0 | i | · | -5 | -15 | -7 | -1
O=S(=O)(c1cccs1)N1CCN(CCOc2ccccc2)CC1 | 6 | -7 | · | 0 | · | · | · | -19
CC(NC(=O)CN1C(=O)NC2(CCCCCCC2)C1=O)c1ccccc1 (stereo not drawn) | -1 | 3 | · | · | · | -13 | · | -6
CCOC(=O)C1=C(C)NC(=O)CC1c1cc2c(cc1[N+](=O)[O-])OCO2 (stereo not drawn) | 2 | 9 | i | 11 | 3 | 3 | 50 | -23 | eIF4H inh retest=26;PABP polyA inh retest=17
COc1ccc(C)cc1NC(=O)c1ccc(CN2CCN(c3ccccc3)CC2)cc1 | 4 | 5 | i | -14 | -6 | -11 | -14 | ·
CC(C)(C)N(Cc1ccccc1)C(=O)COC(=O)CN1C(=O)C2CC=CCC2C1=O (stereo not drawn) | 0 | 1 | i | -7 | 7 | -7 | -15 | -1
CCOc1ccc(C(=O)Nc2nnn(CC)n2)cc1 | -3 | 3 | i | -45 | 6 | -17 | 3 | -20
Cc1noc(/C=C/N(C)C)c1S(=O)(=O)N(C)CC(=O)NC1CCCCC1 | -7 | 2 | i | · | 8 | -4 | 3 | ·
c1ccc2oc(-c3ccc(Nc4nc(N5CCCCC5)nc(N5CCOCC5)n4)cc3)nc2c1 | · | · | i | · | 6 | 5 | 0 | ·
COC(=O)c1ccc(/C=N/Nc2nc(-c3ccccc3)cs2)cc1 | 1 | 8 | i | -57 | 9 | · | -12 | -12
CC(c1ccccc1)N1CCc2[nH]c(=S)[nH]c(=O)c2C1 (stereo not drawn) | 1 | 4 | i | -2 | 2 | 1 | 4 | -18
CCN(CC)S(=O)(=O)c1cccc(NC(=O)c2cc(=O)[nH]c3ccccc23)c1 | 6 | 3 | i | 9 | -20 | 4 | -8 | ·
COc1ccccc1NC(=O)c1cc2cc(Br)ccc2oc1=N | -1 | 1 | i | -28 | -3 | 12 | -7 | -13
CC1=CC(C)(C)Nc2ccc(OC(=O)CN3C(=O)C4CCCCC4C3=O)cc21 (stereo not drawn) | -113 | 16 | i | -91 | 18 | · | 9 | -4
CCCCc1ccc(NC(=O)N[C@@H](CC(C)C)C(=O)O)cc1 | 3 | 4 | i | 1 | -4 | 0 | -2 | -2
CCN(CC)c1ccc(/C=C2\SC(=O)N(C(C)C)C2=O)o1 | -130 | -3 | i | · | 4 | 11 | 10 | -10
COc1cc(CN2C[C@@H](CO)O[C@@H](n3cnc4c(NC5CCCC5)ncnc43)C2)cc(OC)c1OC | 4 | 3 | · | -7 | · | · | · | 2
Cc1ccc(S(=O)(=O)N2CCN(C(=O)c3ccc(-n4cncn4)c([N+](=O)[O-])c3)CC2)c(C)c1 | -4 | -14 | · | 27 | · | · | · | -12
COc1ccc(C(=O)C[n+]2ccc3c(c2)nc(-c2cc(OC)c(OC)cc2OC)n3C)cc1 | 3 | -2 | · | · | -4 | -14 | 3 | 1
O=C(NCCN1CCCCC1)Nc1ccccc1 | -4 | 2 | i | -16 | -9 | -4 | -13 | -14

Source: PubChem

A portion of the library, so the mix of outcomes need not match the whole.
